Biofilm kill mix: mixture kills Candida albicans biofilm cells. C. albicans biofilm persisters + clotrimazole, fluorescence viability; primary screen in compound mixtures of four per well. inhibition, % at 7.6 µM. 120,000 compounds, 0.02% hits;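 active means inhibition above 30.3% in the primary screen of four-compound pools, then above 30% when the compound was retested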;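 further: compounds exposed to preformed 24 h biofilms for 48 h; the number belongs to the whole pool; some results filed as inactive read as strong as hits; inactives centre near 12; 0% = biofilm with clotrimazole alone and 100% = kill control; retested singly at about 60 µM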
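Test system: C. albicans biofilms. Buffer or medium: RPMI/MOPS medium, pH 7.0. Timing: 48 h compound exposure at 37 °C. Technique: Alamar Blue fluorescence. Evaluation: percent inhibition of biofilm viability.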
The depositor's hits bear a star. These rows are one share of the data (hit frequency here may not be typical).

> CC1(C)C2CC=C(/C=N/NC(=O)c3ccc(Cl)cc3)C1C2 (configuration not stated)
  Biofilm kill mix: 8.1

> CCN(CC)C(=O)c1sc2c(c1C)c(=O)n(-c1ccc(OC)cc1OC)c(=O)n2CC(=O)c1ccccc1
  Biofilm kill mix: 20.9

> CCC(=O)Nc1nc(-c2cc([N+](=O)[O-])cs2)cs1
  Biofilm kill mix: 9.1

> C=CCOC(=O)/C=C/C(=O)NC(N)=O
  Biofilm kill mix: 13.8

> O=[N+]([O-])c1ccc2[nH]c(O)c(N=NC3CS(=O)(=O)CC3O)c2c1 (configuration not stated)
  Biofilm kill mix: 18.8

> C[n+]1ccccc1COc1ccc(C(C)(C)C)cc1
  Biofilm kill mix: 7.5

> CC1CCN(CC(=O)Nc2ccccc2-c2ccccc2)CC1
  Biofilm kill mix: 6.6

> COc1ccccc1CNC(=O)C(=O)NCC(c1ccco1)N1CCOCC1 (configuration not stated)
  Biofilm kill mix: 17.2

> Cc1nc2ccc(NC(=O)COc3cccc(F)c3)cc2s1
  Biofilm kill mix: 10.3

> Cc1ccc(C(=O)NCC(=O)NCC(=O)OCc2ccc(Cl)cc2)cc1
  Biofilm kill mix: 8.2

> O=C(O)CCCCCN1C(=O)C(O)=C(C(=O)/C=C/c2ccccc2)C1c1ccccc1[N+](=O)[O-] (configuration not stated)
  Biofilm kill mix: 13.7

> CCN=C1SC(CC(=O)NC(C)c2ccccc2)C(=O)N1CC (configuration not stated)
  Biofilm kill mix: -16.9

> COc1ccc(C2c3ccc(O)cc3Oc3ncn(CCCO)c(=N)c32)cc1OC (configuration not stated)
  Biofilm kill mix: 10.8

> O=C(CSc1nc(-c2ccco2)cc(C(F)(F)F)n1)NC1CCCCCCC1
  Biofilm kill mix: 8.1

> O=S(=O)(NCc1cc(-c2ccccc2)no1)c1ccccc1Cl
  Biofilm kill mix: 15.2

> CC[N+](CC)(CC)CC(=O)Nc1ccc(SC(F)F)cc1
  Biofilm kill mix: 9.5

> Cc1cccc(OCCNc2cc(N3CCN(CCO)CC3)ccc2[N+](=O)[O-])c1
  Biofilm kill mix: 20.6

> Cc1cc(C(=O)OCC(=O)NCc2ccc(Cl)cc2)c(C)o1
  Biofilm kill mix: 18.4

> COCCNC(=O)c1cccc(NS(=O)(=O)c2cccc3cccnc23)c1
  Biofilm kill mix: 4.6

> COc1cc(/C(C)=N\NC(N)=S)cc(OC)c1OC
  Biofilm kill mix: 11.0

> Nc1nnc(SCC(=O)NC2CCCCC2)s1
  Biofilm kill mix: 14.0

> COc1ccccc1NCC(=O)NNCC(=O)Nc1ccc(F)c(Cl)c1
  Biofilm kill mix: 8.0

> CNC(=O)C(=O)Nc1nc(C23CC4CC(CC(C4)C2)C3)cs1
  Biofilm kill mix: 18.8

> CC(C)OC(=O)NCCOC(=O)Nc1ccc(Cl)cc1
  Biofilm kill mix: 23.7

> CCCNC(=O)c1ccc(Cn2c(=S)[nH]c3c([nH]c4ccc(OC)cc43)c2=O)cc1
  Biofilm kill mix: 4.0

> CC1=C(C(=O)N2CCOCC2)C(c2cccc3ccccc23)NC(=S)N1 (configuration not stated)
  Biofilm kill mix: 21.2

> O=C(Nc1ccc(Br)cc1)C1CCCN(S(=O)(=O)c2cccnc2)C1 (configuration not stated)
  Biofilm kill mix: 11.3

> COCCn1c(SCCOc2ccccc2)nc2ccccc2c1=O
  Biofilm kill mix: -7.8

> Fc1cccc(Cc2noc(CN3CCCN(C4Cc5ccccc5C4)CC3)n2)c1
  Biofilm kill mix: 19.0

> Cn1ncc2c(O/N=C(\N)c3ccc(C(F)(F)F)cc3)ncnc21
  Biofilm kill mix: 14.7

> O=C(c1ccco1)N1N=C(c2cccs2)CC1c1ccco1 (configuration not stated)
  Biofilm kill mix: 7.8

> CCOC(=O)C(=O)C1=C(N2CCOCC2)/C(=C\c2cccc([N+](=O)[O-])c2)CC1
  Biofilm kill mix: 4.4

> COc1ccc(-n2c(SCC(=O)/C(C#N)=C(\C)N)nc3ccccc3c2=O)cc1OC
  Biofilm kill mix: 18.3

> COC(=O)c1cc(C(=O)N2CCOCC2)cc([N+](=O)[O-])c1
  Biofilm kill mix: 15.1

> COc1cc(CN(C(=S)NCC(=O)NC2CC2)C2CCCC2)cc(OC)c1OC
  Biofilm kill mix: 9.2

> COc1cccc(/C=N/NC(=S)Nc2cccc(C(=O)O)c2)c1
  Biofilm kill mix: 1.8

> COc1ccccc1C(=O)NCCCNc1ccc([N+](=O)[O-])cc1
  Biofilm kill mix: -1.4

> O=C(NCc1ccco1)/C(=C/C=C\c1ccccc1)NC(=O)c1ccc(Br)o1
  Biofilm kill mix: 12.6

> CCOC(=O)c1sc(=NC(=O)c2ccc(Cl)s2)n(C)c1C
  Biofilm kill mix: 15.2

> CCCCN(C(=O)CSc1nnc(Nc2ccccc2)s1)c1c(N)n(CCC)c(=O)[nH]c1=O
  Biofilm kill mix: 11.9

> COc1ccc(C(Nc2cccc([N+](=O)[O-])c2)P(=O)(OC(C)C)OC(C)C)cc1 (configuration not stated)
  Biofilm kill mix: 14.7

> CCc1ccccc1NC(=S)N(CCN1CCOCC1)C1CCN(C(C)=O)CC1
  Biofilm kill mix: 11.1

> Cc1ccc2[nH]cc(C(=O)NCc3cccs3)c(=O)c2c1
  Biofilm kill mix: 13.5

> O=C(Nc1ccc(N2CCOCC2)nc1)c1cccs1
  Biofilm kill mix: 20.6

> CCN(CC)CCN(C)C(=O)CCc1nnc(-c2ccc(C)s2)o1
  Biofilm kill mix: 3.0

> O=C1c2ccccc2C(=O)N1c1ncc(Cc2ccc(Cl)cc2)s1
  Biofilm kill mix: -6.4

> Cc1ccc(S(=O)(=O)N2CC=C(C(=O)NC3CC3)CC2)cc1
  Biofilm kill mix: 28.5

> CCC(Oc1ccccc1)C(=O)NCc1ccc(S(N)(=O)=O)cc1 (configuration not stated)
  Biofilm kill mix: 6.9

> COc1ccc([N+](=O)[O-])cc1NS(=O)(=O)c1ccccc1
  Biofilm kill mix: 13.7

> COc1cc2c(cc1OC)CN(Cc1cc(=O)oc3cc(C)c(C)cc13)CC2
  Biofilm kill mix: 16.2

> CN(C(=O)CSc1nnc(-c2ccncc2)n1Cc1ccccc1)C1CCS(=O)(=O)C1 (configuration not stated)
  Biofilm kill mix: 3.1

> COCC(=O)Nc1nc(-c2ccc([N+](=O)[O-])cc2)cs1
  Biofilm kill mix: 8.4

> COc1cc(S(=O)(=O)N2CCN(C(=O)c3ccccc3)CC2)c(OC)cc1Br
  Biofilm kill mix: 0.9

> CCOc1ccccc1NC(=S)N1CCC(NC(=O)C(C)(C)C)CC1
  Biofilm kill mix: 26.8

> CCCN(CCC)S(=O)(=O)c1ccc(C(=O)Nc2nnc(-c3cccc(OC)c3)o2)cc1
  Biofilm kill mix: 18.6

> COc1ccc(/C=N/NC(=O)c2cccc(Br)c2)cc1CN1CCOCC1
  Biofilm kill mix: 8.1

> O=C1CC2(CCCC2)CC(=O)N1CCCCN1CCN(c2ncccn2)CC1
  Biofilm kill mix: 10.1

> O=C1NNC(c2ccccc2)=N/C1=C\c1ccccc1Cl
  Biofilm kill mix: 6.7

> Cc1ccc(N2C(=O)SC(N(CC(=O)O)c3ccc(C)cc3)C2=O)cc1 (configuration not stated)
  Biofilm kill mix: 30.1

> Cn1c(Cc2ccc3c(c2)OCO3)nnc1SCC(=O)NC1CCCC1
  Biofilm kill mix: 10.2

> O=[N+]([O-])c1cc(/C=N/N2CCN(c3ccccc3)CC2)ccc1Cl
  Biofilm kill mix: 17.2

> CCOC(=O)N/N=C(\CCC(=O)O)c1cccs1
  Biofilm kill mix: 19.3

> CCC(CO)n1c(=S)[nH]c2cc(OC)c(OC)cc2c1=O (configuration not stated)
  Biofilm kill mix: 13.9

> Cc1ccc(C)c(NC(=O)C2CCCN2S(=O)(=O)c2ccc3c(c2)n(C)c(=O)c(=O)n3C)c1 (configuration not stated)
  Biofilm kill mix: 13.8

> Cn1c(C(=O)O)ccc1S(=O)(=O)N1CCCCCC1
  Biofilm kill mix: 12.5

> S=C(Nc1ccccc1)N1CCN(c2ccccn2)CC1
  Biofilm kill mix: 18.4

> CCN(CC)CC#CC(OC)(c1ccccc1)c1ccccc1
  Biofilm kill mix: 8.7

> O=C(COC(=O)c1cccs1)Nc1nc(-c2ccccc2)cs1
  Biofilm kill mix: 11.7

> OCc1c(Cl)nc2ccccn12
  Biofilm kill mix: 9.8

> Cc1c(N/N=C(\C#N)C(=O)c2ccccc2)c(=O)n(-c2ccccc2)n1C
  Biofilm kill mix: 20.6

> Cc1cc2cc(CNC(=O)Nc3ccc(Cl)c(Cl)c3)ccc2n1C
  Biofilm kill mix: 15.9

> COc1cc(OC)cc(C(=O)NNC(=O)c2cc3c(s2)CCCC3)c1
  Biofilm kill mix: 5.3

> NNC(=O)CCn1nnc2ccccc21
  Biofilm kill mix: -5.0

> COCCN(C(=O)Cc1cccs1)C(C(=O)NC1CCCC1)c1ccc(OC)c(OC)c1 (configuration not stated)
  Biofilm kill mix: 24.9

> CCOC(=O)C(NC(C)=O)C(=O)Nc1ccc(OC)cc1 (configuration not stated)
  Biofilm kill mix: 2.0

> Cc1ccsc1/C=N/NC(=O)c1ccc(-n2cccc2)cc1
  Biofilm kill mix: 26.8

> CSc1ccccc1C(=O)NCc1ccccc1C
  Biofilm kill mix: 5.7

> Cc1ccc(-c2nn(-c3ccccc3)cc2/C=C(\C#N)C(=O)NCc2ccccc2)cc1
  Biofilm kill mix: 8.1

> C[n+]1ccc(/C=C/c2c[nH]c3ccccc23)cc1
  Biofilm kill mix: 9.4

> O=c1[nH]c(Cc2ccc(Cl)cc2)nc2ccccc12
  Biofilm kill mix: 19.1

> O=C(COC(=O)c1c2c(nc3ccccc13)CCN(Cc1ccccc1)C2)Nc1c(F)cccc1F
  Biofilm kill mix: -6.4

> CCCCC(=O)Nc1sc(C(=O)N(CC)CC)c(C)c1C(=O)OC
  Biofilm kill mix: 15.2

> OCCN(Cc1ccccc1)C(=S)Nc1ccc(Cl)cc1Cl
  Biofilm kill mix: 8.1

> O=C(CSc1nc(-c2ccccc2)c(-c2ccccc2)o1)NC1CCS(=O)(=O)C1 (configuration not stated)
  Biofilm kill mix: 16.7

> CCC(C)NC(=O)CNC(=S)N(Cc1ccccc1)Cc1cccnc1 (configuration not stated)
  Biofilm kill mix: 11.0

> O=C(Cc1ccccc1[N+](=O)[O-])NCc1ccncc1
  Biofilm kill mix: 18.6

> Cc1nnsc1C(=O)N/N=C/c1ccc(OC(F)(F)F)cc1
  Biofilm kill mix: 8.3

> Cc1ccc(S(=O)(=O)Nc2ccc(-c3cn4ccc(C)cc4n3)cc2)cc1
  Biofilm kill mix: 10.1

> COc1ccc(-c2csc(-c3ccccc3)n2)c(OC)c1
  Biofilm kill mix: 9.1

> COCCn1c(SCc2nc3ccccc3c(=O)[nH]2)nc2ccccc2c1=O
  Biofilm kill mix: 25.6

> O=C(CCCc1c[nH]c2ccccc12)Nc1ccc(S(=O)(=O)Nc2ncccn2)cc1
  Biofilm kill mix: 15.2

> O=C(CN1C(=O)CSc2ccc(S(=O)(=O)N3CCOCC3)cc21)NCCCN1CCc2ccccc2C1
  Biofilm kill mix: 26.4

> CC1CCN(S(=O)(=O)c2ccc3ncn(CC(=O)N4CCN(C)CC4)c(=O)c3c2)CC1
  Biofilm kill mix: 10.6

> Cc1ccc(C(=O)NN2CC(O)=C(c3nc(-c4cccc([N+](=O)[O-])c4)cs3)C2=N)cc1
  Biofilm kill mix: -10.6

> C/C(N)=C(/C#N)C(=O)COC(=O)c1cccc(O)c1
  Biofilm kill mix: 7.3

> S=C(Nc1ccccc1)N(CCN1CCOCC1)Cc1cccc(Cl)c1
  Biofilm kill mix: 13.5

> Nc1nc(-c2cc3ccccc3o2)cs1
  Biofilm kill mix: 17.4

> CCOc1cc(NC(=O)C2CC2)c(OCC)cc1NC(=O)CCn1nnc2ccccc21
  Biofilm kill mix: 11.1

> COc1cccc(C(=O)OC2CCN(C)CC2)c1
  Biofilm kill mix: 11.0

> COC(=O)C1=NN[C@H](C(=O)OC)[C@H]1c1ccccc1
  Biofilm kill mix: 12.7

> CCCNS(=O)(=O)c1ccc(N2CCCC2=O)c([N+](=O)[O-])c1
  Biofilm kill mix: -15.6

> O=C(C1CCC(Cn2c(=S)[nH]c3ccccc3c2=O)CC1)N1CCN(c2ccccn2)CC1 (configuration not stated)
  Biofilm kill mix: 12.0

> CN(C)S(=O)(=O)c1ccc(NC(=O)COC(=O)CC2CC3CCC2C3)cc1 (configuration not stated)
  Biofilm kill mix: 26.5

17 of the compounds above, with tabs.
canonical_smiles	Biofilm kill mix
Cc1ccsc1/C=N/NC(=O)c1ccc(-n2cccc2)cc1	26.8
CSc1ccccc1C(=O)NCc1ccccc1C	5.7
Cc1ccc(-c2nn(-c3ccccc3)cc2/C=C(\C#N)C(=O)NCc2ccccc2)cc1	8.1
C[n+]1ccc(/C=C/c2c[nH]c3ccccc23)cc1	9.4
O=c1[nH]c(Cc2ccc(Cl)cc2)nc2ccccc12	19.1
O=C(COC(=O)c1c2c(nc3ccccc13)CCN(Cc1ccccc1)C2)Nc1c(F)cccc1F	-6.4
CCCCC(=O)Nc1sc(C(=O)N(CC)CC)c(C)c1C(=O)OC	15.2
OCCN(Cc1ccccc1)C(=S)Nc1ccc(Cl)cc1Cl	8.1
O=C(CSc1nc(-c2ccccc2)c(-c2ccccc2)o1)NC1CCS(=O)(=O)C1 (configuration not stated)	16.7
CCC(C)NC(=O)CNC(=S)N(Cc1ccccc1)Cc1cccnc1 (configuration not stated)	11.0
O=C(Cc1ccccc1[N+](=O)[O-])NCc1ccncc1	18.6
Cc1nnsc1C(=O)N/N=C/c1ccc(OC(F)(F)F)cc1	8.3
Cc1ccc(S(=O)(=O)Nc2ccc(-c3cn4ccc(C)cc4n3)cc2)cc1	10.1
COc1ccc(-c2csc(-c3ccccc3)n2)c(OC)c1	9.1
COCCn1c(SCc2nc3ccccc3c(=O)[nH]2)nc2ccccc2c1=O	25.6
O=C(CCCc1c[nH]c2ccccc12)Nc1ccc(S(=O)(=O)Nc2ncccn2)cc1	15.2
O=C(CN1C(=O)CSc2ccc(S(=O)(=O)N3CCOCC3)cc21)NCCCN1CCc2ccccc2C1	26.4
